Screens (PubChem BioAssay)
T cruzi inh – inhibitors of intracellular T. cruzi growth, primary screen, luminescence, NIH3T3 host cells. T. cruzi beta-gal in NIH3T3, 90 h. AID 1885, 2009. 300,000 compounds, 1.4% hits. inhibition, % (no concentration beside the values);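 active means mean inhibition across valid replicates above about 55%, limit read from the data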;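 further: signal also drops with host cell toxicity which is not excluded here; 0% = plate median of DMSO wells and 100% = zero luminescence signal; higher percent means less beta-gal luminescence so fewer parasites; stock transfer was 50 nL into about 50 µL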
Ecoli rRNA inh – reduced GFP signal of wild-type E. coli, primary screen, bacterial rRNA inhibitor project, GFP/RFP fluorescence, OD600, single point | 350,000 compounds, 1.6% hits | AID 720706, 2013 | E. coli WT GFP vs humanized-ribosome RFP mutants, 24 h; stronger effect = lower value; DMSO median 0, no signal -100 | GFP signal change (wild-type ribosome), % (test concentration not listed);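 active means significant combined selectivity score with lowered wild-type GFP, culture density cut under 30%, mutant RFP and density less affected; inactive means any of these conditions unmet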; further: one replicate is shown; some compounds called inactive have numbers as strong as hits
A1 inh – caspase 3/7 activation in MEF A1-2A-BIM cells, primary screen, A1 inhibitor project, cell-based, luminescence, HTS; Caspase-Glo 3/7 luminescence, 3 h; percent of clofoctol response, vehicle zero; caspase activation, % (no concentration beside the values); 330,000 compounds, 0.066% hits;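 active means over half of replicate activation scores above 10%, or exactly half above 10 with the replicate mean above 10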;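 further: wells of about 30 µL received 50 nL stock; many hits fall short of the cut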
Ecoli growth – E. coli growth inhibition, primary screen, OD600 | Escherichia coli growth, 23 h; stronger effect = lower value | OD600 absorbance (concentration not given with the values) | 330,000 compounds, 0.21% hits | AID 1053175, 2014;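 active means OD600 absorbance below the run mean of sample wells minus 3.6 SD, in any replicate, cut at about 0.56 in these data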;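 further: stock transfer was 300 nL into about 60 µL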
FGF22 binding – binders of human FGF22 protein, primary screen, FGF22 synaptogenesis inhibitor project, biophysical, thermal shift, single point; calls only at 9.99 µM; recombinant FGF22 thermal shift, SYPRO orange fluorescence; percent of sucrose octasulfate shift, DMSO zero; Fibroblast growth factor 22 (Homo sapiens), Q9HCT0; 340,000 compounds, 1.5% hits;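 active means melting point raised past a set limit in the mean and every replicate; three in four hits are not shown here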
Target sequence (Q9HCT0 whole entry, looked up): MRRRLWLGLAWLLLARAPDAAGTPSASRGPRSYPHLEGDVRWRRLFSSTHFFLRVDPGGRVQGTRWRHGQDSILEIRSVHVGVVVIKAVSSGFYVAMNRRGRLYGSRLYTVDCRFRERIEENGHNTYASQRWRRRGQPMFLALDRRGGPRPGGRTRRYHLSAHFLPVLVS
UCH37 DUB inh – inhibitors of human UCH37 deubiquitinase, primary screen, biochemical, Ub-AMC cleavage, fluorescence; purified proteasome/UCH37; inhibition, % (no concentration beside the values); 330,000 compounds, 0.33% hits;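 active means mean of two replicates above 20%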;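 further: 0% = compound-free wells with enzyme and 100% = wells lacking proteasome; stock transfer was 100 nL into about 20 µL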
Target sequence (Q9Y5K5 whole entry, looked up): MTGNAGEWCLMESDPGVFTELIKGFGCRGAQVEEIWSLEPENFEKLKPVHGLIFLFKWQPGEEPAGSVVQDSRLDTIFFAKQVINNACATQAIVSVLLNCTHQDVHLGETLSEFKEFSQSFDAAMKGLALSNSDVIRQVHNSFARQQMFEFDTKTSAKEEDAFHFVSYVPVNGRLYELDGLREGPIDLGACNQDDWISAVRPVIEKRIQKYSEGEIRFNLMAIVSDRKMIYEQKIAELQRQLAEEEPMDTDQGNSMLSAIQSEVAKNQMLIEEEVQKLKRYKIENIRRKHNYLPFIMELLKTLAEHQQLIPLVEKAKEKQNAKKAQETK
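Reagent: Ub-AMC substrate; assay system: Proteasome-associated human UCH37 deubiquitinase; controls: no-proteasome and no-compound wells; read-out: % inhibition of Ub-AMC cleavage fluorescence; timing: 30 min preincubation with enzyme, 25 min cleavage at room temperature; signal: AMC fluorescence from Ub-AMC cleavage, excitation 355 nm, emission 460 nm; buffer or medium: Tris-HCl pH 7.4 plus ovalbumin, ATP-MgCl2, DTT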
AF4-AF9 inh – inhibitors of AF4 peptide binding to AF9, primary screen, biochemical, AlphaScreen, biotin-AF4 peptide, FLAG-AF9, single point. Protein AF-9 (Homo sapiens), P42568. inhibition, % at 10 µM. 350,000 compounds, 0.47% hits. AID 651704, 2012;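 active means every replicate reaching a set inhibition limit, whatever the replicate mean, cut at about 25% in these data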;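 further: 0% = plate neutral control median and 100% = total signal loss; the record names both 10 and 1 µM as test concentration; the first replicate is given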
Target sequence (P42568 whole entry, looked up): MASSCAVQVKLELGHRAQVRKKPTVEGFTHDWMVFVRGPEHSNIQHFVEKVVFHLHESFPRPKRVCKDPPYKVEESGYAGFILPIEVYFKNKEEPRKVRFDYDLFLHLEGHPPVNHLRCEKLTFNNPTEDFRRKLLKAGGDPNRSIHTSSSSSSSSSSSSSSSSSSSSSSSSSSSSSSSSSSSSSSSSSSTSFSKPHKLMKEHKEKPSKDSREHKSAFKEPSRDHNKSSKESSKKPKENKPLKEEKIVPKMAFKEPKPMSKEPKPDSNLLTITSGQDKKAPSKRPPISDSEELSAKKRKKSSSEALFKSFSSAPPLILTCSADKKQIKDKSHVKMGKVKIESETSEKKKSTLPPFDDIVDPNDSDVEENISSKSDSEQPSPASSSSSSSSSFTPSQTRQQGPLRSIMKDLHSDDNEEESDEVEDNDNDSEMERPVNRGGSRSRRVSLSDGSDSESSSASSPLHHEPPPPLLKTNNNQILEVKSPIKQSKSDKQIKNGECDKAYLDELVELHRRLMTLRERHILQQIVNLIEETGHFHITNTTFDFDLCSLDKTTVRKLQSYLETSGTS
Beta cell apopt – inhibitors of cytokine-induced beta cell apoptosis, primary screen, luminescence. INS-1E cytokine-induced death, ATP luminescence, 48 h; percent of positive-control rescue, neutral wells zero. protection from apoptosis, % (no concentration beside the values). 300,000 compounds, 0.8% hits. AID 435005, 2010;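 active means all replicates at 75% or more, or half of them and the mean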;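 further: 0% = cytokine-treated negative control wells and 100% = positive control rescue; higher means more ATP so stronger rescue from cytokine killing; wells of about 40 µL received 100 nL stock; the first replicate is given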
Ecoli rRNA inh OD600 – second read-out of Ecoli rRNA inh, no call of its own (marks repeat the call); OD600 change, %; measured here: OD600 growth;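 optical density of the mix in the first replicate; 0 = DMSO median and -100 = no signal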
Ecoli rRNA inh RFP – second read-out of Ecoli rRNA inh, no call of its own (marks repeat the call); RFP signal change, %; measured here: RFP humanized mutant strains;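 first replicate; 0 = DMSO median and -100 = no signal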
Active calls of the source: *; i = inactive; x = no result given; & = joins results of further samples. The list is partial; the hit share may differ from the screen's.

Below each compound: T cruzi inh	Ecoli rRNA inh	Ecoli rRNA inh OD600	Ecoli rRNA inh RFP	A1 inh	Ecoli growth	FGF22 binding	UCH37 DUB inh	AF4-AF9 inh	Beta cell apopt
COc1ccc(CC(=O)Nc2ccc(C(=O)NC(C)(C)C)cc2)cc1OC
→ -10	16	9	0.0	1.1	0.72	x	1.1	-0.6	2
COc1cccc(N2CCN(C(=O)c3ccc(Cl)c(NC4=NC5CS(=O)(=O)CC5S4)c3)CC2)c1 (centres undefined)
→ 7	6	6	-2.0	0.3	0.69	i	0.9	0.0	-2
CCOC(=O)C1(Cc2ccccc2C(F)(F)F)CCN(CC(O)CO)CC1 (centres undefined)
→ 3	5	5	1.2	0.2	0.72	i	2.0	0.0	-3
CCC1CCCCN1Cc1nc2ccccc2c(=O)n1CC(C)=O (centres undefined)
→ 0	-5	-2	1.0	-0.3	0.71	i	-2.8	-2.3	-4
Cc1ccc(-c2nnn(CC(=O)NC3CCN(Cc4ccccc4)CC3)n2)cc1
→ 66*	x	x	x	0.3	0.68	x	1.5	x	-5
Cc1cc(C)nc(NC(=O)c2ccc(C)c([N+](=O)[O-])c2)n1
→ 1	x	x	x	-0.5	0.75	x	0.6	x	-1
COc1ccc(CCNC(=O)c2ccccc2-c2ccccc2C(=O)O)cc1OC
→ -9	-6	-26	-2.5	-0.5	0.68	i	1.4	-1.7	-4
CCOC(=O)C1CCN(c2c(NCc3ccc(C(=O)NCCC(C)C)cc3)c(=O)c2=O)CC1
→ 14	x	x	x	-0.5	0.82	x	2.0	x	2
Cc1ccc(C(=O)N2c3ccccc3CC2C)o1 (centres undefined)
→ -6	-13	0	3.0	-6.0	0.66	i	1.6	-1.5	9
O=C1NC(=O)/C(=C\c2ccc(OCc3cccc(C(=O)O)c3)c(Cl)c2)N1
→ -18	-30	-39	26	0.2	0.63	x	11	0.9	x
COc1ccccc1Nc1nnc(SCc2nnc(-c3cc(OC)c(OC)c(OC)c3)o2)s1
→ 14	x	x	x	-0.1	0.71	x	3.0	x	8
CCOC(=O)Cn1cnc(C)c1
→ x	10	6	-1.1	x	0.69	i	-0.6	4.4	x
CCc1cccc2c1Sc1ccccc1CC2N1CCNCC1 (centres undefined)
→ 64*	-52*	-15*	-14*	1.8	0.61	i	6.4	15	x
CCOc1ccc2[nH]c3nc(SCC(=O)NC4CC4)nnc3c2c1
→ -13	x	x	x	-0.5	0.66	i	4.8	1.0	2
Cc1cc(C)cc(N2CCCn3c2nc2c3c(=O)[nH]c(=O)n2C)c1
→ -5	x	x	x	1.9	0.62	x	3.3	x	-10
O=C(CSc1nc2ccccc2s1)NCCCN1CCOCC1
→ -4	9	1	0.8	0.6	0.69	i	1.6	-9.9	-8
Cc1[nH]c(C)c(S(=O)(=O)NCC(C)c2ccccc2)c1C(=O)N1CCCCC1 (centres undefined)
→ 2	2	4	-0.6	-0.4	0.63	i	0.1	1.3	-1
O=C(NCCC1CC1(Cl)Cl)c1ccc([N+](=O)[O-])cc1 (centres undefined)
→ 5	1	8	-1.5	0.9	0.66	i	-1.0	-2.8	-4
Cc1occc1-c1nnc(SCC(=O)Nc2ccccc2)n1C(C)c1ccccc1 (centres undefined)
→ -10	x	x	x	1.6	0.71	x	1.9	x	0
CCCCOC(=O)c1ccc(N=Nc2c(C)c(C#N)c(O)[nH]c2=O)cc1
→ -16	8	11	1.2	-1.5	0.72	i	14	2.2	33

2 compounds from above with just FGF22 binding.
Molecule | FGF22 binding
CCc1cccc2c1Sc1ccccc1CC2N1CCNCC1 (centres undefined) | i
CCOc1ccc2[nH]c3nc(SCC(=O)NC4CC4)nnc3c2c1 | i

Other structures follow:
Below each compound: T cruzi inh	Ecoli rRNA inh	Ecoli rRNA inh OD600	Ecoli rRNA inh RFP	A1 inh	Ecoli growth	FGF22 binding	UCH37 DUB inh	AF4-AF9 inh	Beta cell apopt
Cc1[nH]nc(N=CC2=C(O)CC(C)(C)CC2=O)c1-c1ccccc1
→ 1	-4	-15	0.3	0.2	0.69&0.68	i	2.6&0.1	0.4	0
CCn1cc(S(=O)(=O)c2ccccc2)c(=O)c2cc(F)c(N3CCN(C)CC3)cc21
→ -8	11	6	-0.3	-1.3	0.65	i	-90	-2.2	-6
O=C(Nc1cccnc1)c1cc(Br)c(Br)s1
→ -5	2	-21	6.4	-0.3	0.66	i	2.0	-0.8	-4
O=C(O)CC/C(=N\Nc1ccc([N+](=O)[O-])cc1S(=O)(=O)N1CCOCC1)c1cccs1
→ 3	0	1	-0.8	1.2	x	i	x	-8.0	4
COc1ccccc1C(=O)Nc1ccnn1C1CCN(Cc2cn(C)c3ccccc23)CC1
→ 43	-6	4	4.4	4.0	0.72	i	3.9	7.2	-3
Nc1ccc(CC2SC(=O)NC2=O)cc1 (centres undefined)
→ 0	x	x	x	0.2	0.69	x	1.2	x	0
Cc1cc(OCCCn2ccnc2)ccc1C(C)C
→ 74*	-12	-25	-4.5	0.1	0.6	i	2.0	8.3	-1
N#CC1=C(N)Oc2c(ccc3cccnc23)C1c1ccccc1 (centres undefined)
→ 53	-1	1	11	0.4	0.69	i	1.6	5.7	97*
Cc1cccc(N(Cc2ccccc2)C(=O)c2cc(S(=O)(=O)N3CCOCC3)ccc2F)c1
→ 4	1	-18	5.1	-0.4	0.65	i	2.6	0.4	-1
Cc1cc(=O)[nH]c(SCC(=O)NCc2ccc3c(c2)OCO3)n1
→ 4	12	23	1.0	0.6	0.66	i	4.6	-0.3	-7
Cc1nnc(SCC(=O)N2N=C(c3ccc(Cl)cc3)CC2c2ccco2)[nH]c1=O (centres undefined)
→ -10	8	8	9.6	-0.7	0.71	x	-0.5	-0.3	-8
CCOC(=O)Nc1ccc2c(c1)N(C(=O)CN1CCN(C)CC1)c1ccccc1S2
→ 71*	x	x	x	-1.4	0.67	x	5.2	x	-8
C[C@@H]1O[C@@H](OCCC(=O)O)[C@H](O)C[C@H]1O
→ x	21	14	1.1	0.4	x	i	4.4	1.4	-1
C/C(=N\NC(=O)Cc1ccccc1[N+](=O)[O-])c1cccnc1
→ 10	3	11	-0.8	-0.2	x	i	x	2.0	-1
COc1cccc(NC(=O)COC(=O)CNC(=O)C2CCCCC2)c1
→ x	1	5	0.0	0.0	0.67	i	-2.5	0.9	-1
COc1ccc(Nc2c(-c3ccco3)nc3ccc(C)cn23)cc1
→ -16	-15	-7	-3.3	0.0	0.73	i	-61	3.7	-1
COc1cccc(CN2CC(C(=O)NCCC3=CCCCC3)CCC2=O)c1 (centres undefined)
→ 7	2	6	0.3	-0.2	0.62	i	0.5	0.8	-2
COC(=O)c1ccc(-n2nnnc2SCc2nn[nH]n2)cc1
→ -10	x	x	x	0.5	0.7	x	3.7	x	-6
O=C(CCn1c(=O)oc2ccccc21)Nc1ccccc1
→ -1	x	x	x	1.4	0.73	x	2.5	x	0
CCOC(=O)/C(C#N)=C/c1c(N2CCCCCC2)nc2ccccn2c1=O
→ 20	-6	-7	2.7	2.1	0.63	i	5.0	8.6	10
Cn1c(NC(=O)c2ccccc2NC(=O)C(C)(C)C)nc2ccccc21
→ 18	-34	-35	-0.9	-0.1	0.7	i	-12	-2.5	14
Nc1nc(NCc2ccco2)nc(Nc2cccc(F)c2)c1[N+](=O)[O-]
→ 3	19	6	3.2	-0.2	0.66	i	8.2	-0.1	1
CCOC(=O)C1(Cc2cccc(OC)c2)CCCN(C(=O)c2cc(CC(C)C)[nH]n2)C1 (centres undefined)
→ 9	-5	3	0.2	-1.1	0.66	i	1.7	-0.7	-3
CC(=O)Nc1ccc(NC(=O)CN(c2ccc(C34CC5CC(CC(C5)C3)C4)cc2)S(C)(=O)=O)cc1
→ 53	x	x	x	0.3	0.66	x	1.2	x	13
O=P(c1ccccc1)(c1ccccc1)C(O)c1ccccn1 (centres undefined)
→ -28	2	3	0.0	1.1	0.66	i	2.1	-2.3	-5
O=C(Nc1ccc(N2CCN(C(=O)c3ccco3)CC2)cc1)c1ccc([N+](=O)[O-])cc1Cl
→ 34	-11	1	-1.1	0.8	0.69	i	4.5	0.1	1
CCN(Cc1nc(-c2ccc(OC)cc2)no1)C(=O)c1ccoc1C
→ 5	-8	-16	-0.3	0.0	0.63	i	-0.9	-3.4	6
COc1ccc(CCNC(=O)C2CCN(C(=O)c3ccc(C(C)(C)C)cc3)CC2)cc1
→ -5	7	-2	1.7	-1.0	0.71	i	5.6	4.2	-2
Cc1ccc(S(=O)(=O)N(CC(=O)O)Cc2ccccc2F)cc1
→ -1	x	x	x	0.1	0.71	x	4.9	x	-8
COc1cccc(CNC(=O)C2CCCN(S(=O)(=O)c3ccc4c(c3)C(C)(C)C(=O)N4C)C2)c1 (centres undefined)
→ 3	-1	-10	-1.1	0.4	0.69	i	6.4	-1.1	4
O=C(CNC(=O)c1ccccc1)N=Nc1c(O)[nH]c2ccc(Br)cc12
→ -2	6	9	-0.9	-0.8	0.62	i	9.0	-0.9	5
CCN(CC)C(=O)c1nc[nH]c1C(=O)O[C@@H](C)c1ccccc1
→ x	8	2	14	0.8	0.78	i	-43	0.9	0
CCOc1ccc(C(=O)Nc2ccc(NC(=O)c3ccco3)c(Cl)c2)cc1Br
→ -24	8	13	0.8	-0.7	0.8	i	-54	-1.0	5
O=C(Cn1[nH]c(=O)c2ccccc2c1=O)OCC(=O)c1ccc(F)c(F)c1
→ x	6	6	-2.3	0.2	x	i	x	1.6	-3
Cc1cccc(OCC(O)Cn2c(=N)n(CCN3CCOCC3)c3ccccc32)c1 (centres undefined)
→ -4	x	x	x	0.5	0.68	x	-0.5	x	-5
O=C(COC(=O)c1n[nH]c2ccccc12)NCCc1ccc(Cl)cc1
→ x	-11	-3	1.1	-0.8	0.68	i	1.2	-1.6	-4
COc1ccc(Cc2nnc(NC(=O)C3CCCO3)s2)cc1 (centres undefined)
→ -1	x	x	x	1.0	0.71	x	0.7	x	1
CCN(C(=O)COC(=O)CCOc1ccc(C(C)(C)C)cc1)c1c(N)n(Cc2ccccc2)c(=O)[nH]c1=O
→ x	7	18	-1.1	x	0.61	i	1.6	-2.1	x
O=C1CC2(CCN(C(=O)c3ccc([N+](=O)[O-])cc3)CC2)Oc2ccccc21
→ 2	0	1	-3.5	-0.9	0.68	i	-4.3	1.9	x
Cc1ccc2nc(-c3ccc(NC(=O)CCS(=O)(=O)c4ccccc4)cc3)sc2c1
→ 2	8	5	0.1	-5.9	0.75	x	-102	-2.3	0
